High-throughput results from PubChem.
RecA intein inh: Mtb RecA intein splicing inhibitors, primary screen, biochemical, fluorescence, HTS; actives 0.75% (n = 290,000); cell-free RecA intein splicing; Protein RecA (Mycobacterium tuberculosis (strain ATCC 25618 / H37Rv)), P9WHJ3; inhibition, %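 (about 9 µM by stock and volumes)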; in the data active means inhibition above about 30%; inconclusive means no clear call, values can overlap the other calls;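 further: 0% = vehicle wells and 100% = reference inhibitor control wells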
Target sequence (P9WHJ3 whole entry, looked up): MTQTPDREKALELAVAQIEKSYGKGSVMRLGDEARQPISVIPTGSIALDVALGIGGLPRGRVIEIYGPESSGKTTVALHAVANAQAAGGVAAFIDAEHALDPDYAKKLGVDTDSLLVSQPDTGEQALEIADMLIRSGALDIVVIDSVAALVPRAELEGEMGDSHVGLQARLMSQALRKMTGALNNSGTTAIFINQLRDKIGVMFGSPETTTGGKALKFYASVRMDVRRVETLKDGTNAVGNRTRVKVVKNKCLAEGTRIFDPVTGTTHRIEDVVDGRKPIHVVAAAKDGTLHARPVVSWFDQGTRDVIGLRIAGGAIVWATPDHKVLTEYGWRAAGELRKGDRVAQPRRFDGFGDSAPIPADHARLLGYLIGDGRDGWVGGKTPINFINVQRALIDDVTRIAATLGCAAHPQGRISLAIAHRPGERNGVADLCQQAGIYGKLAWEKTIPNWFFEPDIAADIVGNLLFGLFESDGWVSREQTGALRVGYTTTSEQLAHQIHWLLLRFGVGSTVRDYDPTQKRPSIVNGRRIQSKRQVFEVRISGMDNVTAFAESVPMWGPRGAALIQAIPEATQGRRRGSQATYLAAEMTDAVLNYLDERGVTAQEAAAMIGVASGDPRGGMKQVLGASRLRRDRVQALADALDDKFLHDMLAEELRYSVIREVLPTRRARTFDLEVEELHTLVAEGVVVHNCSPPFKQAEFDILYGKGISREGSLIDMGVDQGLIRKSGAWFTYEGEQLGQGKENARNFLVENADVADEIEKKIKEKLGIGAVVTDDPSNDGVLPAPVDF
Mtb betalactam: beta-lactam sensitization of Mtb H37Rv, H37Rv. actives 0.27% (n = 330,000). M. tuberculosis H37Rv growth with meropenem, percent inhibition; hits of this screen are not shown here. AID 434955, 2010. inhibition, % at 25 µM;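 active means about 74% or more and at least 40 points above the plate without the antibiotic, then above 30% in a dose series; inconclusive means first-round hits that could not be retested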;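 further: growth measured after seven days incubation then overnight dye step; 0% = bacteria only wells and 100% = bacteria with antibiotic; twin plates without the antibiotic show which effects depend on it; some results filed as inactive read as strong as hits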
Mtb H37Rv: M. tuberculosis H37Rv growth inhibitors, H37Rv strain (AID 1626); M. tuberculosis H37Rv growth inhibition; higher % means a stronger effect; one-dose inhibition, % at 10 µM; IC50 in µM for titrated hits; actives 0.95% (n = 220,000);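 active means confirmed in a dose series; inconclusive means inhibition above 80% but not taken into the dose series; inactive means below 80% or under 30% at every dose of the series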;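 further: bacteria incubated seven days before Alamar blue readout; 0% = bacteria only wells and 100% = bacteria with antibiotic wells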
Arbovirus anti: antivirals against arbovirus infection, primary screen, cell-based, full library, 10K replicate subset. actives 0.37% (n = 200,000). inhibition, % at 10 µM. AID 1251, 2008. arbovirus infection cell-based antiviral screen;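 active means inhibition from about 30%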;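 further: bluetongue infection of BSR cells; cell survival read as ATP light after 72 h; 0% = infected wells without compound and 100% = uninfected wells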
YopH inh: YopH tyrosine phosphatase inhibitors, primary screen, biochemical, fluorescence Ex485/Em525 | YopH tyrosine phosphatase [Yersinia enterocolitica] | inhibition, %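 (about 10 µM by stock and volumes)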 | actives 0.16% (n = 140,000) | AID 898, 2007;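 active means inhibition of 50% or more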;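 further: controls were vehicle for no effect and minimum signal wells for full effect; inactives centre near -20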
The depositor's hits bear a star; ? = inconclusive; / = no result given. This is a subset. The share of hits here may be higher or lower than overall.

#	smiles	RecA intein inh	Mtb betalactam	Mtb H37Rv
1	COC(=O)c1cc(OC)c(OC)cc1NC(=O)CCNC(=O)c1ccco1	1.2	-10.4	/
2	CCn1c(CNC(=O)c2ccc(OC)c(OC)c2)nnc1SCC(=O)c1ccc(OC)cc1	-2.4	9.2	-1.4%
3	O=C(Cn1ccc([N+](=O)[O-])n1)N1CCCc2ccccc21	1.2	-3.9	-16.3%
4	CCOC(=O)Cn1c(C)cc(COC)c(C#N)c1=O	-1.9	-6.5	-7.4%
5	CCCC1CCC(=NNS(=O)(=O)c2ccc(C)c([N+](=O)[O-])c2)CC1 (stereo not drawn)	1.7	-2.1	-2.8%
6	C/C(CCc1oc2ccc(Cl)cc2c1-c1ccc(C)o1)=N\O	2.3	60.5	6.0%
7	CN(C)/C=N/c1ncc(-c2ncc(C(F)(F)F)cc2Cl)cn1	3.8	-2.1	1.6%
8	Cc1ccccc1NC(=O)CSc1nnc(Cc2ccccc2)o1	0.2	-0.8	3.4%
9	O=C(CCCN1C(=O)c2ccccc2C1=O)Nc1ccccc1	-3.0	-12.5	-5.4%
10	COc1ccc(-c2oc3ncnc(N)c3c2-c2ccccc2)cc1	3.1	-16.6	-0.5%
11	COCc1ccc(CN2CCC(n3nccc3NC(=O)CCOc3ccccc3)CC2)o1	-0.4	?	/
12	COCCCNC(=O)c1ccc(Cn2c(=O)c3ccccc3n(Cc3ccccc3C)c2=O)cc1	0.0	?	3.8%

#	Arbovirus anti	YopH inh
1	/	/
2	1.9	15.3
3	8.8	-34.1
4	5.8	/
5	-19.6	-16.5
6	-3.6	-29.8
7	-5.5	/
8	-3.3	-8.3
9	/	/
10	-1.3	-0.9
11	/	/
12	-5.7	-14.1

#	smiles	RecA intein inh	Mtb betalactam	Mtb H37Rv
13	O=C(O)c1ccccc1-c1csc(-c2ccccc2)n1	-4.8	0.6	-7.6%
14	Cc1ccc(S(=O)(=O)Nc2ccc(N=Nc3ccc(O)cc3)cc2)cc1	16.9	1.0	8.9%
15	C=CCn1c(O)c(C(C)=NCCN2CCCCC2)c(=O)[nH]c1=O	-0.9	-19.6	-12.7%
16	CC(=O)N1CCN(Cc2nc3cc(NC(=O)Nc4ccccc4)ccc3n2C)CC1	1.4	-1.2	6.1%
17	O=C(CSc1ncn[nH]1)NCc1ccccc1	-1.6	5.8	-2.1%
18	C=CCSc1nnc2c(n1)OC(c1cccnc1)N(C(C)=O)c1ccccc1-2 (stereo not drawn)	-4.5	8.0	-8.1%
19	CC12CC(O)C3c4ccc(O)cc4CCC3C1CC/C2=N\O (stereo not drawn)	-2.1	1.7	/
20	O=C(C1CCCN(S(=O)(=O)c2cc(Cl)ccc2Cl)C1)N1CCCC1 (stereo not drawn)	-5.5	-24.1	/
21	Cc1cccc(NC(=O)c2sc(-c3ccccc3)nc2-c2ccc([N+](=O)[O-])cc2)c1	2.7	9.9	-5.3%
22	Cc1cccc(C(=O)NCCc2ccc(S(N)(=O)=O)cc2)c1[N+](=O)[O-]	-5.9	13.2	9.8%
23	CC(C)(C)SCCNC(=O)CN1C(=O)c2cccc3cccc1c23	-10.1	1.1	/
24	CCOC(=O)C(NC(=O)OC(C)C)(Nc1nccs1)C(F)(F)F (stereo not drawn)	/	3.2	-1.1%

#	Arbovirus anti	YopH inh
13	-0.4	/
14	-31.5	-16.6
15	8.6	-20.3
16	-0.4	/
17	11.8	-25.7
18	5.2	-39.0
19	/	/
20	/	/
21	18.9	-25.4
22	9.6	-23.4
23	/	/
24	-4.8	-23.5

Whole records as entered above.
C=CCn1c(O)c(C(C)=NCCN2CCCCC2)c(=O)[nH]c1=O in the list: RecA intein inh: -0.9; Mtb betalactam: -19.6; Mtb H37Rv: -12.7%; Arbovirus anti: 8.6; YopH inh: -20.3
Cc1cccc(NC(=O)c2sc(-c3ccccc3)nc2-c2ccc([N+](=O)[O-])cc2)c1 in the list: RecA intein inh: 2.7; Mtb betalactam: 9.9; Mtb H37Rv: -5.3%; Arbovirus anti: 18.9; YopH inh: -25.4

Later entries.
#	smiles	RecA intein inh	Mtb betalactam	Mtb H37Rv
25	COc1ccc(-c2ccc(CCC(=O)O)n2-c2ccccc2OC)cc1	1.0	18.9	/
26	CCOC(=O)CSC1=Nc2ccccc2C2=NC(CC(=O)NCc3ccc(OC)cc3)C(=O)N12 (stereo not drawn)	4.0	5.8	-7.3%
27	CCC(C(=O)NCc1cccnc1)n1nc(C)c2sc3ccccc3c2c1=O (stereo not drawn)	5.3	-1.3	/
28	O=C(C1CC1)N1CCN=C1SCc1ccc(Cl)cc1	4.3	89.5	/
29	CCNC(=O)CN(C1CCCCC1)S(C)(=O)=O	-0.5	-7.1	-1.6%
30	CCc1nnc(NC(=O)CSc2nnc(CNC(=O)c3ccc(OC)c(OC)c3)o2)s1	-3.7	-2.9	0.2%
31	Cc1ccc(S(=O)(=O)N2CCC(C(=O)NCC3CCCO3)CC2)cc1 (stereo not drawn)	0.1	-7.2	-6.7%
32	CCOC(=O)C1=C(C)N(Cc2ccccc2)C(=O)NC1c1ccccc1OS(=O)(=O)c1ccccc1[N+](=O)[O-] (stereo not drawn)	9.4	4.7	1.4%
33	Cc1ccccc1NC(=O)N(C(C)C)C(C)C	-1.8	-3.5	-5.1%
34	CC(SC1=NCCS1)C(=O)Nc1nnc(-c2ccc(Cl)cc2)s1 (stereo not drawn)	4.4	-1.7	31.0%
35	O=C(c1ccc(Cl)cc1)c1cnc2ccccn12	0.2	0.2	-4.7%
36	COc1ccc(C(CNC(=O)CCc2ccsc2)N(C)C)cc1 (stereo not drawn)	0.8	-7.0	/

#	Arbovirus anti	YopH inh
25	/	/
26	-1.5	-28.4
27	/	/
28	55.7*	-28.3
29	3.2	-13.9
30	3.0	/
31	-1.6	-8.4
32	/	/
33	3.4	-31.8
34	11.2	-24.6
35	6.9	-23.3
36	/	/

Taken from above:
entry 36 @ RecA intein inh: 0.8
entry 26 @ YopH inh: -28.4
entry 31 @ Mtb betalactam: -7.2
entry 29 @ Mtb H37Rv: -1.6%

The list continues:
#	smiles	RecA intein inh	Mtb betalactam	Mtb H37Rv
37	O=C(c1ccccc1)N1CCN(CCc2ccccn2)CC1	1.6	4.1	/
38	Cc1ccc(C(C(=O)NC2CCCCC2)N2CCC3(CC2)OCCO3)cc1 (stereo not drawn)	-45.9	-10.3	-10.3%
39	Cc1nn(C(C)C(=O)NCCC2=CCCCC2)c(=O)c2nn(-c3ccccc3)c(C)c12 (stereo not drawn)	1.0	4.8	/
40	CC(C)c1ccc(NC(=O)c2cc(S(=O)(=O)N3CCCCC3)c[nH]2)cc1	-1.1	-5.2	/
41	S=C(Nc1cc(Cl)cc(Cl)c1)N1CCN(c2ccccn2)CC1	-1.9	1.8	/
42	Cc1ccc(C)c(CSc2ncccc2C(=O)O)c1	-1.9	-0.9	1.1%
43	Cc1ccccc1OCC(=O)Nc1nnc(-c2ccco2)s1	/	-3.4	-2.6%
44	NC(=O)COc1ccc(/C=N/NS(=O)(=O)c2ccccc2)cc1	-11.0	1.2	0.1%
45	O=C(O)c1ccc2oc(=O)c(S(=O)(=O)c3ccc(F)cc3)cc2c1	0.0	-6.4	/
46	COC(=O)CCn1[nH]c(=O)c2ccccc2c1=O	-2.9	6.8	-4.2%
47	CCOC(=O)C1CCCN(C(=O)c2cncc(Br)c2)C1 (stereo not drawn)	0.2	-0.3	-1.9%
48	Cc1cccc(NC(=S)N(CCN2CCOCC2)Cc2cc3cc4c(cc3[nH]c2=O)OCCO4)c1	-6.5	-3.3	0.8%

#	Arbovirus anti	YopH inh
37	/	/
38	2.3	-9.2
39	/	/
40	/	/
41	/	/
42	3.7	-31.4
43	/	/
44	-3.3	/
45	/	/
46	14.9	-20.9
47	5.8	-5.4
48	0.2	/

4 compounds already listed, arranged by molar mass, ascending.
#	smiles	RecA intein inh	Mtb betalactam	Mtb H37Rv
44	NC(=O)COc1ccc(/C=N/NS(=O)(=O)c2ccccc2)cc1	-11.0	1.2	0.1%
41	S=C(Nc1cc(Cl)cc(Cl)c1)N1CCN(c2ccccn2)CC1	-1.9	1.8	/
38	Cc1ccc(C(C(=O)NC2CCCCC2)N2CCC3(CC2)OCCO3)cc1 (stereo not drawn)	-45.9	-10.3	-10.3%
40	CC(C)c1ccc(NC(=O)c2cc(S(=O)(=O)N3CCCCC3)c[nH]2)cc1	-1.1	-5.2	/

#	Arbovirus anti	YopH inh
44	-3.3	/
41	/	/
38	2.3	-9.2
40	/	/

Next entries follow:
#	smiles	RecA intein inh	Mtb betalactam	Mtb H37Rv
49	CCOC(=O)C1=C(COC(=O)[C@@H]2CCCN2S(=O)(=O)c2ccc(C)cc2)NC(=O)NC1C (stereo partly drawn)	0.0	-13.6	/
50	O=C(Nc1ccc2oc(=O)ccc2c1)c1ccc2ccccc2c1	4.5	-5.0	/
51	COC(=O)c1cccc(NC(=O)CSc2nnc(C)n2C)c1	-2.9	2.0	-1.3%
52	CC(=O)c1cc(CN2CCN(Cc3ccc(C)cc3)C(CCO)C2)cs1 (stereo not drawn)	5.5	2.0	1.3%
53	COc1ccccc1NC(=S)N1CCN(C(=O)c2ccco2)CC1	2.0	-20.2	-9.4%
54	CCOc1ccc(CN(C)C(=O)c2ccc(NS(=O)(=O)c3ccc4[nH]c(=O)[nH]c4c3)cc2)cc1	2.8	-3.0	/
55	O=C(c1ccccc1)c1ccccc1NC(=O)C1CCCN1Cc1ccccc1 (stereo not drawn)	10.8	-7.2	1.0%
56	O=C(c1ccccc1Cl)N1CCN(c2ncccn2)CC1	0.1	-5.0	/
57	Brc1ccc(NCc2cccc3ccccc23)nc1	1.6	4.4	-4.3%
58	Cc1ccc(-c2onc3ccc(C4(C)OCCO4)cc23)cc1	-0.2	-3.4	0.0%
59	COc1cccc(-n2nnc3c(=O)n(CC(=O)Nc4ccccc4C)cnc32)c1	-1.3	-0.7	0.8%
60	O=C(Nc1ccc(Nc2ccccc2)cc1)c1ccc(Cl)cc1Cl	1.4	2.3	/

#	Arbovirus anti	YopH inh
49	/	/
50	/	/
51	-2.9	/
52	-3.2	/
53	12.9	-33.4
54	/	/
55	/	/
56	/	/
57	-2.4	-3.7
58	-8.1	4.9
59	-4.7	/
60	/	/

#	smiles	RecA intein inh	Mtb betalactam	Mtb H37Rv
61	O=C(CSc1nc(-c2ccccc2)c(-c2ccccc2)[nH]1)NCc1ccco1	1.6	1.4	10.1%
62	CCOC(=O)c1coc(CNC(=O)c2c(C)oc3c2CCCC3)c1	1.6	-1.6	-5.7%
63	CS(=O)(=O)N(Cc1ccccc1)c1ccc(C(=O)N2CCN(c3cccc(Cl)c3)CC2)cc1	7.7	75.2	36.5%
64	O=C(O)CCNc1nc(-c2ccccc2)nc2ccccc12	2.4	-5.0	-4.4%
65	CCCCc1ccc(S(=O)(=O)Nc2nnc(C)s2)cc1	1.1	-0.1	/
66	O=C(Cc1ccc(F)cc1)Nc1cccc(-c2cn3c(n2)SCC3)c1	-0.1	-1.6	4.8%
67	O=c1[nH]c2sc3c(c2c(=O)n1Cc1ccccc1)CCC3	-0.8	-12.2	4.2%
68	COc1ccc(CCNC(=O)CNS(=O)(=O)c2ccc(Br)s2)cc1OC	1.7	-6.0	-8.9%
69	COc1ccc(CN2CCN(Cc3ccc4ccccc4c3)CC2)cc1OC	1.5	2.4	/
70	CCN1C(C#N)=C(C#N)N=C(C)CC1(C)C	-7.6	-3.9	4.9%

#	Arbovirus anti	YopH inh
61	-16.4	-6.8
62	6.5	-35.8
63	-15.1	-23.4
64	-3.4	35.7
65	/	/
66	-9.5	/
67	20.3	-54.7
68	3.5	-25.9
69	/	/
70	9.6	/
